Yeast UUG start – alters start codon recognition fidelity in yeast. S. cerevisiae UUG-firefly luciferase reporter, luminescence/redox ratio. activity score, % at 18.7 µM. 350,000 tested, 0.13% active. AID 602363;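 active = replicate mean at a twofold rise or more, about +100% in these data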;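 also: firefly luciferase made from a UUG start codon reports start codon fidelity; reporter light over untreated wells divided by growth signal over untreated wells; some hits fall short of that in this replicate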
Rce1 inhib – yeast Ras-converting enzyme inhibition; Q03530; yeast membranes, quenched prenylated peptide cleavage fluorescence; calls only; 290,000 tested, 0.27% active;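 active = fall in fluorescence gain of 50% or more versus controls, with final raw signal at or below 3038400; inconclusive = same 50% fall but final raw signal above 3038400; inactive = fall in fluorescence gain under 50%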;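 also: plate controls were neutral control wells for no effect and wells lacking membranes for full effect; tested at 10 µM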
Target sequence (Q03530 whole entry, looked up): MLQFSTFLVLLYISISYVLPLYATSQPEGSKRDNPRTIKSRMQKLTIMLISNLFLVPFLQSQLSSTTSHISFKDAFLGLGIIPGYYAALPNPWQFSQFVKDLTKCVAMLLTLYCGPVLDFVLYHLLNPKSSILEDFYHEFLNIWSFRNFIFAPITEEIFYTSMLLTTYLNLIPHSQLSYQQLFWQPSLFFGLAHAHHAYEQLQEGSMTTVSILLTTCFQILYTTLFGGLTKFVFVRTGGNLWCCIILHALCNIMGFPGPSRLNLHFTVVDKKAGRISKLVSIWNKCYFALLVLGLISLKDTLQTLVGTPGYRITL
CSC inhib – blocks cancer stem cells; cancer stem cell-like cells viability, luminescence; inhibition, % at 7.5 µM; 300,000 tested, 1.1% active;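 active = mean at 75% or more and at least half the replicates too; inconclusive = mean and replicates disagree; tested in HMLE shEcad cells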;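 also: 0% = median of negative and 100% = median of positive control wells; the first replicate is given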
MT1-MMP act inh – inhibitors of human MT1-MMP activation; P50281; HT1080 RFP-PRO-GFP cells, GFP/RFP ratio fluorescence, overnight; percent of plate control window, DMSO zero; GFP/RFP ratio change, % at 20 µM; 360,000 tested, 0.061% active; AID 651647;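 active = GFP/RFP ratio change of at least 30% with cell ATP level not reduced by more than half and red fluorescence within 50% of control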; also: strong numbers were not always called active
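Assay system: HT1080 RFP-PRO-GFP cells | Dosing: 20 µM single dose, 1% DMSO | Incubation: Cells overnight before dosing, compound overnight, 37 °C, 5% CO2 | Evaluation: GFP/RFP fluorescence ratio | Control set: DMSO-only wells and HT1080 RFP-L50D-GFP cell wells as references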
eIF4H FP inh – inhibitors of RNA binding by human eIF4H | AID 2012 | eIF4H fluorescence polarization binding assay | Q15056 | 290,000 tested, 0.94% active | inhibition, % at 35 µM;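 active = 50% or more with normal probe brightness, or confirmed in later tests; inconclusive = above 50% with abnormal brightness, or retests that disagree; inactive = below 50% or failed in later tests; about a fifth of its hits are not listed in these tables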;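 also: calls also rest on retests at 20 µM and on dose response follow-up; 0% = protein and probe with vehicle and 100% = probe without protein; strong numbers were not always called active; many hits fall short of the cut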
PABP polyA inh – PABP-poly(A) binding inhibition; P11940; PABP-poly(A) RNA binding, fluorescence polarization; inhibition, % at 35 µM; 290,000 tested, 1% active; AID 2014;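 active = 50% or more with normal probe brightness, or confirmed in later tests; inconclusive = above 50% with abnormal brightness, or retests that disagree; inactive = below 50% or failed in later tests; about a fifth of its hits are not listed in these tables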;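 also: calls also rest on retests at 20 µM and on dose response follow-up; controls were probe without protein and protein plus probe with vehicle; some compounds called inactive have numbers as strong as hits; many hits fall short of the cut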
Target sequence (P11940 whole entry, looked up): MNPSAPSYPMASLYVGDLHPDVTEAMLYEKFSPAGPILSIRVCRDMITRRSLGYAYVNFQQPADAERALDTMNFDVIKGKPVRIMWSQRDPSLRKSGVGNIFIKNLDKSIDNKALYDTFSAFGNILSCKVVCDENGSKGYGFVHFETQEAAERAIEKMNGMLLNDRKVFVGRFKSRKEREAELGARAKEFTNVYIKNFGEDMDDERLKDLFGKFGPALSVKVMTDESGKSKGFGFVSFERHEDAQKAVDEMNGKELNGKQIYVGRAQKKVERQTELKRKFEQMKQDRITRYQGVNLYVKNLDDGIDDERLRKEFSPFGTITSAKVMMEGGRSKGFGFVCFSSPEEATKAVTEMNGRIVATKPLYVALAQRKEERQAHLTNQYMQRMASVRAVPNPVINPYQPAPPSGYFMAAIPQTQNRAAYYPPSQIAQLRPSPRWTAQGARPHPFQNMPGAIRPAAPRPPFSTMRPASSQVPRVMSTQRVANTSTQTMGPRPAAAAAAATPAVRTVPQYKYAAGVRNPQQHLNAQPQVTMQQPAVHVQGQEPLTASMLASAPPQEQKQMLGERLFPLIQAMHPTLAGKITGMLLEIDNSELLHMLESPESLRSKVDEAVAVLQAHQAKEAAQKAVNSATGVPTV
Env fusion inh – inhibitors of HIV Env-mediated cell fusion; HeLa-JRFL Env/CEM21 cell fusion, luciferase; inhibition, % at 12.3 µM; 360,000 tested, 1.1% active;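 active = mean replicate inhibition score of at least 50 and every replicate individually at or above 50; inconclusive = only one of the two criteria met; inactive = mean below 50 and not all replicates reaching 50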;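 also: 0% = plate neutral controls and 100% = maraviroc near 300 nM; one replicate is shown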
eIF4H FP inh retest – also measured in eIF4H FP inh; calls as there; inhibition, %; compound at 20 µM; confirmation average;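 mean of two retest wells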
PABP polyA inh retest – second read-out of PABP polyA inh, no call of its own (marks repeat the call); inhibition, %; compound at 20 µM; confirmation repeats;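 mean of two retest wells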
MT1-MMP act inh RFP – recorded beside MT1-MMP act inh, whose call it bears; RFP signal change, %; measured here: RFP expression control read;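 0 = vehicle wells; hits needed this value within 50% of zero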
* = called active by the depositor; i = inactive; ? = inconclusive; / = no result given.

SMILES	Yeast UUG start	Rce1 inhib	CSC inhib	MT1-MMP act inh	MT1-MMP act inh RFP	eIF4H FP inh	PABP polyA inh	Env fusion inh	others
CCC(C)(C)C(=O)Nc1ccc(OC)cc1[N+](=O)[O-]	/	i	9	1	4	1	-9	/
Cc1ccc(S(=O)(=O)N2CCOCC2)cc1NC(=O)CN(C)C1CCS(=O)(=O)C1 (configuration not stated)	/	i	-5	-7	1	-7	-9	11
O=C(O)c1ccc(/C=C(\c2nc3ccccc3[nH]2)c2nc3ccccc3s2)cc1	-22	i	25	-2	2	3	10	-15
Cc1cc(C)nc(NS(=O)(=O)c2ccc(NC(=O)C3CC3)cc2)n1	1	i	2	4	2	5	1	10
COc1ccc([C@H]2C[C@@H](n3cc(C4CC4)nn3)[C@H](O)CN2Cc2cccs2)cc1	-22	/	/	0	0	/	/	30
COC(=O)c1ccc(NC2=CC(=O)CC(C)(C)C2)cc1	2	i	4	0	4	-9	-2	/
COc1ccc2nc(N3CCN(C(=O)C4COc5ccccc5O4)CC3)sc2c1 (configuration not stated)	1	i	-7	1	-3	/	/	-214
C=C(C)COc1ccc2c(CC)cc(=O)oc2c1	/	i	1	2	2	0	4	-44
CCOP(=O)(OCC)C(NC(=O)Nc1cccc(Cl)c1)C(N)=O (configuration not stated)	-9	i	-10	-12	0	-12	11	0
COC(=O)CN(c1ccc(OC)cc1)S(=O)(=O)c1c(C)noc1C	-6	i	-9	8	8	4	2	/
O=C1CSC2(CCCCC2)N1CCO	-5	i	13	3	5	-1	-4	-19
COc1cccc(NC(=O)CSc2nnc(-c3ccoc3C)n2-c2ccccc2)c1	/	i	-14	/	/	-10	-10	/
CCOC(=O)CSc1nc2c(c(=O)[nH]1)C(C)(CC)Cc1ccccc1-2 (configuration not stated)	3	i	71	1	-6	-10	-5	25
Cc1cccc(OCC(=O)N/N=C/CC(C)c2ccccc2)c1C (configuration not stated)	/	i	-12	3	1	12	-10	/
COC(=O)c1cccc(Oc2nc3c(c(=O)n(C)c(=O)n3C)n2C(C)C)c1	-16	i	-2	0	-2	-3	2	23
O=C1CN(CC(=O)Nc2ccc(SC(F)F)cc2)CCN1	-8	i	-2	-2	1	-1	-2	18
CC(C)CCNC(=O)c1ccc2c(c1)ncn2C1CCCC1	/	i	-3	2	3	1	-2	7
CCCCN(CC)CCNC(=O)c1cn(CCOC)c(=O)c2c1c1ccccc1n2C	0	i	-1	-4	-1	0	-1	0
COc1ccccc1/C=C1/C(=O)N(c2ccccc2)N=C1C	-16	i	-9	3	-2	-4	-3	-64
Cc1cccc(OCCn2c(=S)[nH]c3ccccc32)c1	-14	i	13	0	-4	0	2	/
C[C@@H]1NC(=O)OC1c1ccco1 (some centres not stated)	-21	/	-2	2	7	/	/	-9
COCCNC(=O)C(c1ccc(C)o1)N(Cc1ccc(OC)cc1)C(=O)Cn1nnc2ccccc21 (configuration not stated)	-19	i	-5	-2	0	-2	0	3
CN(CC(=O)N1CCCC1)S(=O)(=O)c1cccc(Cl)c1	-8	i	-6	4	6	-7	-10	-6
O=C(NC(=S)Nc1ccc(CN2CCOCC2)cc1)c1ccc2c(c1)OCCO2	-4	i	34	-2	-18	-14	-4	-16
O=C(NCC1CCCO1)C1CCCN(S(=O)(=O)c2ccc(Cl)cc2)C1 (configuration not stated)	5	i	-12	-3	-1	-17	-4	12
COc1ccc(NC(C)=O)cc1NC(=O)c1cccc(C(F)(F)F)c1	/	i	-10	1	6	3	8	3
COc1ccc(C(=O)Nc2ncc(C)s2)cc1S(=O)(=O)N1CCCC1	/	i	-2	2	3	-12	4	8
O=C(c1cncc(Br)c1)N1CCN(S(=O)(=O)c2ccc(Cl)cc2)CC1	-1	i	-9	4	5	-2	-4	-10
CC(=O)NC1=NN(C(C)=O)C2(S1)C(=O)N(C(C)C)c1ccc(C)cc12 (configuration not stated)	-3	i	-5	3	2	3	-1	-49
O=C1CN(C(=O)c2c(F)cccc2F)C(c2ccccc2)c2cc(Br)ccc2N1 (configuration not stated)	-15	i	-6	-8	-9	-5	1	47
Cc1ccc(S(=O)(=O)N2CCC(C(=O)OCC(=O)NCc3ccco3)CC2)cc1C	/	i	-2	1	1	/	/	/
Cc1cccc(NC(=O)c2ncn3c2C(=O)N[C@@H](C)C3)c1	3	/	/	-12	-13	/	/	22
Cc1ccc(C2N(C)c3ccccc3-c3nc4ccccc4n32)o1 (configuration not stated)	-24	?	/	4	-4	9	0	-51
CCC(C)C(=O)Nc1c2c(nc3c1CCC3)CCCC2 (configuration not stated)	-27	i	-10	4	4	-5	-8	/
COc1cc(OC)c(NS(=O)(=O)c2cc(Br)cnc2N)cc1Cl	11	i	-12	3	-1	-20	0	-4
c1coc(-c2nn3c(Cn4nnc5ccccc54)nnc3s2)c1	-14	i	-8	1	2	5	-11	-6
CC(C)C(=O)Nc1cc(S(=O)(=O)Nc2cccc(Cl)c2)ccc1Cl	-19	i	-5	4	6	-3	-12	3
CN(C)S(=O)(=O)c1cccc(NC(=S)NC(=O)C2CCCCC2)c1	/	i	-16	-4	-13	3	5	-1
COc1ccc(CC(=O)Nc2ccc(-c3noc(-c4cccc(OC)c4)n3)cc2)cc1	-7	i	-5	6	-1	-8	-1	/
CCOC(=O)N1CCN(C(=O)Cc2ccc(-n3c(=O)[nH]c4ccccc4c3=O)cc2)CC1	-5	i	0	6	3	-2	4	-28
CS(=O)(=O)N1CCN(c2ccccc2NC(=O)c2ccc(-c3ccc(Br)cc3)o2)CC1	-17	i	10	-2	-4	-14	1	/
COc1ccc2nc(SCc3nc(N)nc(Nc4ccccc4)n3)[nH]c2c1	-16	i	-15	0	-4	0	4	/
COC(=O)c1ccccc1NC(=S)NC(=O)c1cccc2ccccc12	-18	i	-5	4	2	-10	-10	/
Cn1c(-c2cccc(F)c2)nc2c1c(=O)[nH]c(=O)n2Cc1ccccc1	-6	i	-3	8	4	-10	4	-6
O=C(COC(=O)c1ccc[nH]c1=O)c1ccc(Cl)s1	-9	i	4	-1	0	-12	3	-3
CC(=O)c1ccc(N2CCN(S(=O)(=O)c3c(C)[nH]c(C)c3C(=O)N3CCCCC3)CC2)cc1	-11	i	-15	-2	0	3	2	-11
CC(=O)Oc1cc(OC(C)=O)c2c(C)cc(=O)oc2c1	-18	i	-9	1	-4	2	-3	/
CCN(Cc1ccccc1)c1ccc(/C=N/NC(=S)NC(C)C)cc1	/	i	?	-10	-10	-7	0	37
O=[N+]([O-])c1ccccc1S(=O)(=O)N1CCN(Cc2ccccc2)CC1	0	i	-12	3	0	15	11	-8
C=CCSc1nnc(NC(=O)Cc2ccc(OC)c(OC)c2)s1	/	i	-13	1	2	-2	10	17
O=c1[nH]c(=S)n2c(c1-c1ccccc1)OC(CBr)C2 (configuration not stated)	10	/	/	0	7	/	/	2
CCOC(=O)c1[nH]c(C)c(/C(O)=C2\C(=O)C(=O)N(CCCN(C)C)C2c2cccnc2)c1C (configuration not stated)	/	/	1	0	4	-7	-6	/
COc1ccccc1CN1C[C@@H]2C[C@@H](C3=Cc4cccc(OC)c4OC3)N3CCC[C@@]23C1=O	/	i	-4	-2	2	3	-2	1
Nc1nn2c(-c3ccccc3)cc(=O)[nH]c2c1N=Nc1ccc(Br)cc1	/	/	/	16	1	43	6	28
COc1cc(F)c(C2=CC(=O)C[C@H](c3ccc(F)cc3)C2)cc1F	-5	/	55	3	-1	/	/	16
CCC1(c2ccc(F)cc2)NC(=O)N(CC(=O)N(C)C2CCS(=O)(=O)C2)C1=O (configuration not stated)	-12	i	-2	-1	-1	/	/	12
COc1cc(OC)cc(C(=O)N[C@H](C(=O)N2CCc3ccccc32)C(C)C)c1	6	i	2	-42	-38	3	6	7
COc1ccc(-n2c(SCC(=O)Nc3cc(C)on3)nc3c(c2=O)SCC3)cc1OC	8	i	-1	-1	1	-17	-2	-8
CC(C)Oc1ccc(CSc2nnc3n(C)c(=O)c4c5c(sc4n23)CCCC5)cc1	-3	i	-6	-3	-8	/	/	11
COc1ccc(NC(=O)Nc2ccc3c(c2)C(=O)N([C@H](C)CO)C[C@H](C)[C@@H](CN(C)S(=O)(=O)c2ccc(OC)cc2)O3)cc1	-24	/	-12	-3	3	/	/	29

Following part
SMILES	Yeast UUG start	Rce1 inhib	CSC inhib	MT1-MMP act inh	MT1-MMP act inh RFP	eIF4H FP inh	PABP polyA inh	Env fusion inh	others
N=c1c2c(n(Cc3cccc(Cl)c3)c3c1CCC3)CCCC2	/	i	9	-21	-25	4	2	/
CC(=O)c1cccc(NC(=O)COC(=O)c2ccc3c(c2)OCCO3)c1	-5	i	-7	1	1	-2	6	-2
O=C(O)c1cc(-c2cccc([N+](=O)[O-])c2)nc2ccccc12	3	i	0	3	3	-8	0	-39
CCCN1CCN(C(=O)Cn2ncc3ccccc32)CC1	-14	i	-14	-1	5	61	12	3	eIF4H FP inh retest=3;PABP polyA inh retest=-4
COc1ccc(CN2CCN(Cc3ccco3)CC2)cc1	-7	i	-7	-4	1	28	12	-10
CN1C(=O)N(C)C2(c3ccccc3)Nn3c(s/c(=C/c4ccccc4)c3=O)=NC12c1ccccc1 (configuration not stated)	-6	i	-4	0	3	3	-4	/
COc1ccc(/C=C/C(=O)OCC(=O)NCCc2ccccc2)c(OC)c1	-7	/	-12	-4	0	/	/	/
CCN(CC)C(=O)CC(c1ccc(OC)cc1)c1c(O)cc(OC)cc1OC (configuration not stated)	4	i	-2	3	-2	-7	3	-6
CCCc1cc(NCCCN2CCOCC2)n2c(nc3ccccc32)c1C#N	-12	i	49	-1	0	46	8	/
Cc1ccccc1C(=O)NCCN=C1NS(=O)(=O)c2ccccc21	-13	i	-5	-1	-2	2	-9	3
Cc1ccccc1CN1CCN(C(=O)[C@H]2O[C@@H](n3cnc4c(N)ncnc43)[C@H](O)[C@@H]2O)CC1	-12	/	/	3	3	/	/	-12
Cc1c(NC(=O)CNCc2ccc3c(c2)OCO3)c(=O)n(-c2ccccc2)n1C	-7	i	10	-1	3	13	3	-6
CCc1sc(C(=O)NCCCN2CCCC2=O)cc1Br	-27	i	11	-5	-2	1	-2	2
CCOc1ccc(CCNC(=O)C2CCN(S(=O)(=O)N3CC(C)CC(C)C3)CC2)cc1OCC (configuration not stated)	-2	i	-18	-1	-16	-15	1	-1
CSc1ccc(C#N)cc1NC(=O)c1cccnc1Cl	-12	/	1	12	-1	-1	0	4
O=C(c1ccccn1)c1cc2ccccc2n1S(=O)(=O)c1ccccc1	/	i	-7	-1	-5	5	11	-8
Cn1cccc1/C=N/NC(=O)c1ccccn1	-34	i	-21	2	2	-12	-5	-17
CCS(=O)(=O)c1ccc(-c2csc(-c3ccccc3Cl)n2)c(Cl)c1Cl	-3	i	-7	-5	-15	2	-10	/
CC(C)NC(=O)COC(=O)c1cccc(NS(=O)(=O)/C=C/c2ccccc2)c1	/	i	-13	4	2	-1	-3	-20
CSc1nc(Cl)c(C#N)c(-c2ccc(C)cc2)n1	-7	i	11	5	3	-5	0	/
COc1cc2c(cc1OC)[C@@H](NC(=O)C(C)C)[C@H](O)C2	-5	/	/	-1	4	/	/	11

Only part of the results is shown (hit frequency here may not be typical).
